Bioassay records (PubChem BioAssay)
Choline anaer gr: growth inhibitors of anaerobic choline-fed gram-negatives, minimal medium, absorbance. 0.2% of 55,000 active. Gram-negative bacterium anaerobic choline minimal medium; active compounds read low; many inactives read as strong as hits in the columns shown. calls only. AID 1963822, 2024;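 active = growth z-score on choline under -2 at 7 or 20 h with little or no fall on glycerol, limits in tiers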;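 note: stock transfer was 300 nL into about 50 µL; the organism is E. coli; final concentration not given here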
Choline anaer gr early: also measured in Choline anaer gr; calls as there; z-score; measured here: choline growth z-score, timepoint 1;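 score of optical density at 7 h as mean of two plates; lower means less growth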
Starred values were filed as active, the others as inactive; i = inactive. These rows are one share of the data. The share of hits here may be higher or lower than overall.

SMILES	Choline anaer gr	Choline anaer gr early
COc1cccc(NC(=O)c2ccc(-c3nc(-c4ccccc4)no3)cc2)c1	i	0.2
CCC(=O)NC1CCN(C(=O)C2CCCC2)C1 (stereo not given)	i	0.01
COc1ccc(C2CC(c3ccc(NS(C)(=O)=O)cc3)=NN2C(=O)CCCC(=O)O)cc1 (stereo not given)	i	0.55
Cc1c(C(=O)NCc2ccc(OC(C)C)cc2)cc(-c2ccccc2)n1C	i	1.7
COc1cccc(NC(=O)C2CCN(S(=O)(=O)c3ccc(-c4noc(C5CC5)n4)cc3)CC2)c1	i	0.97
Cc1ccc(S(=O)(=O)Nc2nc3n(n2)C(c2ccc(Cl)cc2)C=C(c2ccccc2)N3)cc1 (stereo not given)	i	0.36
COc1ccc(Cl)cc1S(=O)(=O)NCC1(C)CCOCC1	i	0.65
COc1cccc(CNC(=O)C2CCCN(c3ncnc4c3oc3ccccc34)C2)c1 (stereo not given)	i	-0.76
CCOC(=O)c1cc(Nc2cc(Cl)c(OC)cc2OC)c2cc(C)ccc2n1	i	-0.7
CCC(C)NC(=O)Cn1cnc2nc(N3CCCC(C(=O)NC(C)C)C3)sc2c1=O (stereo not given)	i	0.23
CCC(=O)NCc1csc(-c2ccc(OC)cc2)n1	i	0.24
Cc1cc(NC(=O)COc2ccccc2)n(-c2ncnc3c2cnn3-c2ccc(Cl)cc2)n1	i	0.54
O=C(c1cccc(N2C(=O)CCS2(=O)=O)c1)N1CCCC1	i	-0.23
Cc1ccc(NC(=O)C2CCN(Cc3cnn(-c4ccccc4)c3-n3cccc3)CC2)c(C)c1	i	0.59
CC1(C)C(=O)N(CC(=O)NCc2ccccc2)c2ccccc21	i	0.4
O=C(Nc1ccc2c(c1)OCCO2)c1nc2ccccc2nc1N1CCOCC1	i	0.16
Cc1cc(C)c(C(=O)N2CCC(CC(=O)N3CCN(c4ccccn4)CC3)CC2)[nH]1	i	-0.15
CCn1ccc2cc(S(=O)(=O)N3CCCC(C(=O)N4CCN(c5ccc(F)cc5)CC4)C3)ccc21 (stereo not given)	i	-0.72
Cc1ccc(-c2noc(C(=O)N3CCCC3)n2)cc1S(=O)(=O)N1CCN(c2ccccc2F)CC1	i	-1.3
CCc1nnc2ccc(NCC3CCCO3)nn12 (stereo not given)	i	-0.64
Cc1ccc(OCc2cc(=O)n3ccsc3n2)c(C)c1	i	1.1
Cc1ccc(-c2c(Nc3ccc(Cl)cc3)c(=O)c2=O)cc1	i	-0.51
O=C(c1cnc2sc3c(n2c1=O)CCC3)N1CCCCC1	i	0.55
CSc1ccc(NC(=O)N2CCc3c(c(-c4nc(C5CC5)no4)nn3C)C2)cc1	i	-0.71
Cc1ccc(S(=O)(=O)CC(=O)Nc2ccc3sc(C)nc3c2)cc1	i	0.75
Further structures.
SMILES	Choline anaer gr	Choline anaer gr early
O=C(CS(=O)(=O)c1ccccc1)Nc1oncc1-c1ccccc1	i	-0.76
CCOC(=O)c1ccc(NC(=O)c2nn(C)c(C(F)(F)F)c2Cl)cc1	i	-1.5
Cc1ccccc1CNC(=O)C1CCCN(S(=O)(=O)Cc2ccc(F)cc2)C1 (stereo not given)	i	1.1
Cn1nccc1-c1csc(S(=O)(=O)NC2CCCCC2)c1	i	-1.3
CCc1c(C)nc2ncnn2c1N1CCN(C(C)C)CC1	i	-1
Cc1ccc(Cl)cc1NC(=O)CCCn1nc(C)c2nn(-c3ccccc3)c(-n3cccc3)c2c1=O	i	0.78
C=Cc1ccc(Cn2nc3n(CCC(C)C)c(=O)c4ccc(C(=O)NC5CCCC5)cc4n3c2=O)cc1	i	0.03
Cc1[nH]c(C)c(S(=O)(=O)N2CCC(C(=O)N3CCc4ccccc4C3)CC2)c1C(=O)N1CCCCC1	i	0.64
CCC(=O)N1CCc2cc(S(=O)(=O)NC(CC(C)C)C(=O)N3CCC(C)CC3)ccc21 (stereo not given)	i	0.96
CCCCn1c2ccccc2n2cc(-c3ccc4c(c3)OCO4)nc12	i	2.2
Cc1nc(NCCc2ccccc2)cc(-c2ccccc2)n1	i	-0.06
COc1ccc2c(c1)NC1(CCN(C(=O)Nc3cc(F)ccc3F)CC1)c1cccn1-2	i	0.03
CCOC(=O)CCc1c(C)nc2c(C(=O)Nc3ccc(Cl)cc3)c[nH]n2c1=O	i	0.33
Cc1noc(-c2cc(S(=O)(=O)N3CCCC3)c(C)s2)c1C	i	0.52
O=c1[nH]c(-c2cccc(O)c2)nc2c1Cc1ccccc1O2	i	-0.05
CCc1nn2c(=O)cc(CN(C)c3cccc(C)c3)nc2s1	i	-1.2
CCCCCn1c(=O)[nH]c2cc(C(=O)NCCCN3CCN(C)CC3)ccc2c1=O	i	-0.17
CCOC(=O)C1CCN(c2ncc(S(=O)(=O)c3ccccc3)c(N)n2)CC1	i	0.72
COc1ccc2cc3n(c2c1)CC(C)(C(=O)NC1CCCCC1)N(C(C)C)C3=O (stereo not given)	i	0.02
Cc1cc2[nH]c(=O)[nH]c2cc1NS(=O)(=O)c1c(C)c(C)cc(C)c1C	i	0.83
Cc1cc(C)c2c(-n3cccc3)nn(Cc3ccc(C(=O)NC4CC4)cc3)c2n1	i	1.5
O=S(=O)(NCc1nc2cccnc2n1C1CC1)c1ccc(F)cc1	i	-1.5
Cc1cccc(NC(=O)C2CCCN2S(=O)(=O)c2ccc3c(c2)NC(=O)CO3)c1C (stereo not given)	i	-0.13
CN(C)S(=O)(=O)c1ccc(-c2nc(C#N)c(N3CCCCC3)o2)cc1	i	-1.2
O=S(=O)(c1ccc(F)c(F)c1)N1CCc2nc[nH]c2C1	i	-2.4

Part of the list above, field by field.
structure: O=c1[nH]c(-c2cccc(O)c2)nc2c1Cc1ccccc1O2
  Choline anaer gr: i
  Choline anaer gr early: -0.05
structure: CCc1nn2c(=O)cc(CN(C)c3cccc(C)c3)nc2s1
  Choline anaer gr: i
  Choline anaer gr early: -1.2
structure: CCCCCn1c(=O)[nH]c2cc(C(=O)NCCCN3CCN(C)CC3)ccc2c1=O
  Choline anaer gr: i
  Choline anaer gr early: -0.17
structure: CCOC(=O)C1CCN(c2ncc(S(=O)(=O)c3ccccc3)c(N)n2)CC1
  Choline anaer gr: i
  Choline anaer gr early: 0.72

(list continues)
SMILES	Choline anaer gr	Choline anaer gr early
Cc1nn(-c2nc3ccc(Br)cc3s2)c2c1C(c1c(F)cccc1Cl)CC(=O)N2 (stereo not given)	i	-0.16
CCOc1ccc(-n2nnc3c(N4CCN(C(=O)CCC5CCCCC5)CC4)ncnc32)cc1	i	-0.06
CCNc1cc(C)nc(Nc2ccc(NC(=O)CC(C)(C)C)cc2)n1	i	-0.58
COc1cc(NC(=O)CCCn2nc(C)c3nn(-c4ccccc4)c(-n4cccc4)c3c2=O)cc(OC)c1	i	0.34
Cc1cc(C)cc(NS(=O)(=O)c2cc(-c3nc(C(C)C)cs3)cs2)c1	i	1.3
CCOC(=O)c1c(NC(=O)CSc2nnc(CNC(=O)c3cccc(C)c3)n2C)sc2c1CCC2	i	1.4
Cc1onc(-c2ccc(F)cc2F)c1C(=O)N1CCN(C2CCCCC2)CC1	i	-0.73
Fc1ccc(OCc2nnc3sc(COc4ccccc4Cl)nn23)cc1	i	-0.34
Cc1nn(Cc2noc(CNC(=O)c3ccccc3)n2)c(C)c1S(=O)(=O)N1CCCC1	i	-1.5
COC(=O)C1=C(c2ccccc2)c2ccccc2S(=O)(=O)N1CC(=O)N1CCC(C)CC1	i	-0.04
COc1cccc(-n2nnc(-c3nc(-c4ccccc4)no3)c2N)c1	i	-1.4
COc1ccc(S(=O)(=O)[C@H]2CS(=O)(=O)C[C@@H]2NCCc2c[nH]c3ccccc23)cc1	i	-0.05
Cc1ccc(-c2nc3ccccc3c(=O)[nH]2)cc1	i	-0.86
CC(=O)N1CCc2c(sc3nc(SCc4ccc(Cl)cc4)n(-c4ccccc4)c(=O)c23)C1	i	-0.76
O=C1CCCc2cc(S(=O)(=O)N3CCC(C(=O)NCCC4=CCCCC4)CC3)ccc2N1	i	0.33
COc1ccc(NC(=O)CSc2nnc(C(C)N3C(=O)COc4ccccc43)n2C)cc1 (stereo not given)	i	-0.31
COc1cccc(CN2C(=O)c3cc4occc4n3CC2(C)C(=O)NC2CCCCC2)c1 (stereo not given)	i	1.7
CCSc1nnc(-c2nn(C)c3c2CN(S(=O)(=O)c2c(C)n[nH]c2C)CC3)n1CC	i	0.16
CC(C(=O)N1CCN(C)CC1)N1Cc2ccccc2C1=O (stereo not given)	i	-0.84
CN(C)c1nc2ncnc(SCC(=O)Nc3ccc(Cl)cc3)c2s1	i	-0.02
CN1CCN(CCNC(=O)c2cc3n(n2)CCCC3)CC1	i	1.1
COC(=O)C1=CN(C2CC2)c2cc(N3CCOCC3)c(F)cc2S1(=O)=O	i	-0.24
CCOC(=O)c1c(C)[nH]c(C(=O)N2CCCC(C(=O)N3CCN(c4ccccn4)CC3)C2)c1C (stereo not given)	i	0.17
Cc1cc(N2CCCCC2)n2ncc(-c3ccc(F)cc3)c2n1	i	0.85
CCCn1nnc2cc(S(=O)(=O)N3CCCCC3C(=O)NCCC3=CCCCC3)ccc21 (stereo not given)	i	1.4

4 compounds drawn at random from those above:
SMILES	Choline anaer gr	Choline anaer gr early
CCOC(=O)c1cc(Nc2cc(Cl)c(OC)cc2OC)c2cc(C)ccc2n1	i	-0.7
Cc1cc(C)cc(NS(=O)(=O)c2cc(-c3nc(C(C)C)cs3)cs2)c1	i	1.3
C=Cc1ccc(Cn2nc3n(CCC(C)C)c(=O)c4ccc(C(=O)NC5CCCC5)cc4n3c2=O)cc1	i	0.03
Cc1ccc(-c2nc3ccccc3c(=O)[nH]2)cc1	i	-0.86

Later entries.
SMILES	Choline anaer gr	Choline anaer gr early
Cc1nnc2sc(SCc3ccccc3Br)nn2c1=O	i	-0.19
COc1cc(NC(=O)CSc2nccnc2N2CCSCC2)cc(OC)c1	i	-0.21
COc1ccc2c(c1)c1c3n2CCN=C3N(C)CC1	i	-1.2
Cc1cc(C)c(S(=O)(=O)Cc2nc(-c3ccccc3)no2)c(C)c1	i	-0.15
O=c1[nH]c(SCc2ccc(F)cc2)nc2nc[nH]c12	i	-0.41
CC(C)C(=O)NCc1csc(C2CCCN(C(=O)C(C)C)C2)n1 (stereo not given)	i	0.44
CC(=O)Nc1ccc(NC(=O)C2CCCN(c3nc4ccccc4nc3C(F)(F)F)C2)cc1 (stereo not given)	i	1.6
Cc1nc(CNC(=O)[C@H]2CSCN2C(=O)Nc2ccc(F)c(Cl)c2)cs1	i	-0.36
CCOc1ccc(S(=O)(=O)NC)cc1-c1nc(C)no1	i	-0.25
CCOC(=O)c1cnc(Nc2ccc(OC)cc2OC)c2ccccc12	i	0.47
O=C(NC1CC1)c1ccc2c(=O)nc3c(-c4ccc(F)cc4)n[nH]n3c2c1	i	-0.44
CCn1c(SCC(=O)Nc2ccc(OC)cc2)nnc1-c1cn(C)nc1-c1ccc(Cl)cc1	i	1.1
CCn1c(=O)n(CC)c2cc(NC3=C(C(N)=O)S(=O)(=O)c4ccccc43)ccc21	i	0.26
O=c1ccc(-c2ccc3c(c2)OCO3)nn1CCc1nc(-c2ccccc2Br)no1	i	0.3
O=C(c1nc(Nc2ccc(F)cc2)c2ccccc2n1)N1CCOCC1	i	-0.06
COc1ccc(NC(=O)C2CCCN(S(=O)(=O)c3ccc4c(c3)CCCC(=O)N4)C2)cc1 (stereo not given)	i	1.9
Cc1ccc(-c2c(C(F)(F)F)nn3c(N4CCCC4)cc(C)nc23)cc1	i	-1.5
COc1ccc(C)cc1NC(c1cccnc1)c1ccc2cccnc2c1O (stereo not given)	i	-0.95
CCS(=O)(=O)NC1CCN(C(=O)C2CC2)C1 (stereo not given)	i	0.57
Cc1ccccc1N1CCN(S(=O)(=O)c2cc(-c3nnc(C4CCC4)o3)co2)CC1	i	1.4
COc1ccc(-c2cc(C(=O)N3CCN(S(=O)(=O)c4ccc(Cl)cc4)CC3)[nH]n2)cc1	i	0.46
Cc1noc2ncn(CC(=O)NC3CCCCC3)c(=O)c12	i	0.38
COc1ccc(OC)c(NC(=O)C2CCCN(C(=O)c3cc(-c4ccccn4)n[nH]3)C2)c1 (stereo not given)	i	2
CC(=O)Nc1cccc(-c2nc(-c3ccc(NS(C)(=O)=O)cc3)no2)c1C	i	-0.26
Cc1cc2n(n1)CCC(=O)N2CCCC(=O)NCc1ccccc1Cl	i	-0.49
Later entries:
SMILES	Choline anaer gr	Choline anaer gr early
N#CC1=CN(c2ccccc2)c2ccccc2S1(=O)=O	i	0.08
CCCCC/C=C\C[C@@H](O)/C=C/C=C\C/C=C\CCCC(=O)O	i	0.32
COc1cc(N)c(Cl)cc1C(=O)OCCN1CCCCC1	i	-0.11
CCSc1nc2c(s1)c(=O)n(-c1ccccc1)c(=O)n2CC(=O)NC1CCCCC1	i	0.11
Cc1ccc(-c2noc(C3CC3)n2)cc1S(=O)(=O)Nc1ccc(Br)cc1F	i	2.1
O=C(C1CCN(c2nnc(N3CCCC3=O)s2)CC1)N1CCCCC1	i	0.04
COc1ccc(NC(=O)c2ccccc2Cl)cc1CN1CCn2c(nc3ccccc32)C1	i	0.77
Cc1ccc(C)c(CC2C(=O)Nc3c(C)cc(C)cc32)c1 (stereo not given)	i	0.53
CCOC(=O)C1CCN(C(=O)CN2C(=O)C(C)(C)c3cc(S(=O)(=O)N4CCCC4)ccc32)CC1	i	-0.48
Cc1ccc(-c2noc3c(NC4CCCc5ccccc54)nc(C)nc23)cc1 (stereo not given)	i	1.5
CN(C(=O)CCc1nc(-c2ccc(S(=O)(=O)N3CCCCC3)cc2)no1)C1CCCCC1	i	0.64
Cc1ccc(-c2nc(S(=O)(=O)c3ccc(C)cc3)c(NC3CC3)o2)cc1	i	-0.77

Single records, as listed above. Order of values: Choline anaer gr | Choline anaer gr early
Listed for CCOC(=O)C1CCN(C(=O)CN2C(=O)C(C)(C)c3cc(S(=O)(=O)N4CCCC4)ccc32)CC1 → i | -0.48
Listed for COc1ccc(NC(=O)c2ccccc2Cl)cc1CN1CCn2c(nc3ccccc32)C1 → i | 0.77
Listed for Cc1ccc(-c2noc(C3CC3)n2)cc1S(=O)(=O)Nc1ccc(Br)cc1F → i | 2.1
Listed for O=C(C1CCN(c2nnc(N3CCCC3=O)s2)CC1)N1CCCCC1 → i | 0.04
